Compound activity as filed in PubChem BioAssay.
RN4220 kill: growth inhibition of S. aureus RN4220, primary screen, OD600; 16 h; AID 1259311, 2017; inhibition, % (concentration not given with the values); 330,000 compounds, 0.33% hits;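 active = z-score of -3 or lower and OD600 up to 0.18 on both plates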;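 also: plate controls were untreated cells for no effect and reference antibiotic for full effect; stock transfer was 100 nL into about 80 µL; one replicate is shown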
PrP UTR inh: inhibition of PrP 5' UTR reporter expression | 340,000 compounds, 0.35% hits | cell-based PrP 5' UTR mRNA reporter, plate reader | inhibition, % (concentration not given with the values);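 active = every replicate at 50% or more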;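 also: 0 = median of the neutral control wells; tested in H4 reporter cells; numbers are from one replicate; inactives centre near -14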
Mtb hypoxia rep: PubChem AID 1159583. 300,000 compounds, 0.1% hits. M. tuberculosis hypoxia-regulated fluorescent reporter, fluorescence. fluorescence inhibition, % (test concentration not listed);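 active = 35 to 45% if threefold the growth effect, above 45% if 1.5-fold the growth effect; inactive = the rest, general growth blockers included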;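 also: wells of about 50 µL received 100 nL stock; 0% = vehicle wells and 100% = reference inhibitor wells; whole bacteria with a GFP reporter of the hypoxia response; strong numbers were not always called active; many hits fall short of the cut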
ugtP null kill: growth inhibition of ugtP-null S. aureus, primary screen, RN4220 ugtP deletion, OD600; 16 h; some inactives read as strong as hits; growth inhibition, % (concentration not given with the values); 330,000 compounds, 0.54% hits;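 active = z-score under -3 and OD600 up to 0.15 on both plates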;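 also: plate controls were untreated wells for no effect and antibiotic for full effect; wells of about 80 µL received 100 nL stock; the first replicate is given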
BJeLR lethal: MLPCN primary cell-based screen for lethality selective to Ras in HRASV12 cells; BJeLR (HRASV12) viability, CellTiter-Glo ATP luminescence, 48 h; reference of the scale not given here; inhibition, % (concentration not given with the values); 300,000 compounds, 0.17% hits; AID 1554, 2009;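 active = replicate mean above 50%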;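 also: 50 nL library stock added to about 25 µL; numbers are from one replicate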
Autofluor counter: compound fluorescence in toxin protease inhibitor counterscreen; compound autofluorescence counterscreen, microsphere flow cytometry; active compounds read high; 360,000 compounds, 3.1% hits; fluorescence intensity (no concentration beside the values);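 active = at least 3 SD above the mean of all compounds, about 16000 in these data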;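 also: 100 nL of 1 mM stock went into each well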
Mtb hypoxia rep growth: second read-out of Mtb hypoxia rep, no call of its own (marks repeat the call); growth inhibition, %; measured here: M. tuberculosis growth (absorbance);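 0% = vehicle and 100% = reference antibiotic; read after six days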
Active calls of the source: *; nt = not tested or not shown.

SMILES | RN4220 kill | PrP UTR inh | Mtb hypoxia rep | Mtb hypoxia rep growth | ugtP null kill | BJeLR lethal | Autofluor counter
CCc1nc(SCC(=O)N2CC(=O)Nc3ccccc32)c2c(C)c(C)sc2n1 | -4.0 | 4 | 12 | 1 | 7 | -13 | 6783
O=C(N/C=C\c1ccccc1)NCc1ccc(Cl)cc1 | -11 | -1 | nt | nt | 2 | 11 | 3031
O=C(c1ccc(S(=O)(=O)Cc2cc(F)ccc2F)c([N+](=O)[O-])c1)N1CCCCC1 | 3.1 | -14 | 14 | 11 | 12 | 19 | 2696
CCOc1ccc(C(=O)NCC(=O)N2CCN(Cc3ccccc3)CC2)cc1 | 5.8 | nt | 8 | 3 | 2 | nt | nt
O=C(CO/N=C/c1ccc(OC(F)F)cc1)NC1CCCCC1 | nt | -25 | nt | nt | nt | -12 | 4188
CCOC(=O)c1cnc2c(-c3ccccc3)c(-c3ccccc3)nn2c1C | -2.5 | -22 | -4 | -1 | 53 | -10 | 3740
Cc1noc(NS(=O)(=O)c2ccc(NC(=O)CSc3nc4c(cc3C#N)CCC4)cc2)c1C | -0.7 | 0 | nt | nt | 5 | 9 | 5838
Fc1ccccc1NC(=S)N1CCN(Cc2ccccc2)CC1 | 1.7 | -19 | 4 | 2 | 8 | -1 | 1968
COc1ccc(NC(=O)CSc2nc3nc(C)cc(C)c3c(=O)[nH]2)cc1 | nt | -11 | nt | nt | nt | -13 | 5439
Cc1ccc(CS(=O)(=O)c2ccc(C(=O)N3CCCCC3)cc2[N+](=O)[O-])cc1 | 6.4 | -12 | -7 | 7 | 2 | 10 | 4021
COc1ccc(CN2C(=O)C(CC(C)C)Nc3ncnc(N4CCCCC4)c32)cc1 (stereo unspecified) | 1.7 | -18 | -6 | 5 | -2 | 0 | 4313
O=C(NN=Cc1cccnc1)c1cc(-c2ccc(Br)cc2)nc2ccccc12 | -11 | nt | -2 | 4 | 2 | nt | nt
O=C(CCC(=O)N(CC(=O)NC1CCCCC1)Cc1ccco1)Nc1nccs1 | 0.9 | -8 | nt | nt | 6 | -6 | 2579
CCOC(=O)c1ccc(NC=CC(=O)C(C)(C)C)cc1 | 5.6 | nt | 4 | 18 | -1 | nt | nt
COc1ccc(-c2cc(C(=O)NCCN3CCOCC3)no2)cc1OC | 3.6 | 4 | 1 | -6 | 1 | 4 | 3821
O=C1CC(c2ccccc2)c2ccc(O)cc2O1 (stereo unspecified) | -0.9 | -14 | 0 | -6 | 1 | -10 | 9274
O=C(Cc1c(F)cccc1Cl)Nc1cc(S(=O)(=O)N2CCOCC2)ccc1N1CCOCC1 | 2.6 | -13 | -3 | 3 | -2 | nt | 6068
Cc1nn(-c2cc(N(S(C)(=O)=O)S(C)(=O)=O)c(Cl)cc2Cl)c(=O)n1C | -1.0 | -25 | 6 | 0 | 3 | 10 | 2392
CC1=C(C(=O)Nc2ccc(CC(=O)NCc3ccc(OC(C)C)cc3)cc2)SCCO1 | -6.4 | 72* | 8 | 15 | -2 | 26 | 4733
CCc1ccccc1NC(=O)CN(C1CCCCC1)S(C)(=O)=O | 3.1 | -24 | 1 | 9 | 14 | -2 | 3734
O=C(NCc1ccccc1Cl)C1CCCN(c2ncnc3c2nc2n3CCCCC2)C1 (stereo unspecified) | 3.3 | -11 | 6 | -7 | 9 | 8 | 4626
Cc1cc(C)n(/C(=C\N(C)C)C(=O)c2ccc(Cl)cc2)n1 | -3.1 | -5 | -7 | 8 | -5 | 1 | 4418
CCOC(=O)c1c(CNCCN(CC)CC)n(C)c2cc(Br)c(OC)cc12 | -2.2 | 1 | nt | nt | -4 | 0 | 2107
CC(=O)N1CCc2cc(S(=O)(=O)CCC(=O)N3CCC(C)CC3)ccc21 | 3.1 | -8 | 14 | 8 | 0 | -8 | 5847
Cc1ccc(S(=O)(=O)N2CCN(S(=O)(=O)N3CCCCC3)CC2)cc1 | 5.2 | -8 | 4 | -1 | 7 | 4 | 10093
COc1ccc(CSc2nnc(SCc3ccc([N+](=O)[O-])cc3)s2)cc1 | 2.3 | -26 | 10 | 3 | -1 | 2 | 23671*
O=C(NC(=S)Nc1nc(-c2ccc(Br)cc2)cs1)c1cccnc1 | 11 | -35 | 9 | 3 | -4 | 4 | 23721*
CCNC(=O)N(CC)C[C@H]1N[C@@](CC)(C(=O)OC)[C@H]2C(=O)N(Cc3ccccc3)C(=O)[C@@H]12 | 0.5 | -18 | -2 | 0 | 5 | nt | 3047
Cc1ccccc1NC(=O)c1ccc(COc2ccc3c(C)cc(=O)oc3c2)cc1 | -1.2 | -12 | -2 | 6 | -1 | -3 | 2116
CCCCN(C(=O)NC(=O)Nc1ccccc1OC)S(C)(=O)=O | 2.2 | -19 | 2 | -3 | 5 | 2 | 9398
CCOC(=O)c1ccc(NC(=O)CN(c2ccc(C)cc2)S(=O)(=O)c2c(C)n[nH]c2C)cc1 | 7.2 | -9 | -1 | -2 | 56 | -5 | 4196
Nc1nonc1-n1nnc(C(=O)NN=Cc2ccccc2)c1CSc1ccc(Cl)cc1 | 6.6 | nt | 10 | 3 | 1 | nt | nt
CCN1CCN(C(=O)CN2C(=O)c3cccc4cccc2c34)CC1 | -2.0 | -19 | nt | nt | -6 | -11 | 2888
C/C(=N\NC(=O)Cc1c(C)[nH][nH]c1=O)c1ccc(Cl)c(Cl)c1 | nt | -20 | nt | nt | nt | -3 | 6134
COc1ccc(N2CCN(C(=O)CNC(=O)Cn3cnc4sc(C)c(C)c4c3=O)CC2)cc1 | 5.4 | -1 | 1 | -5 | 9 | -4 | 4114
COCCN1C(=O)C(=O)/C(=C(/O)c2ccc(S(=O)(=O)N3CCOCC3)cc2)C1c1cccc(O)c1 (stereo unspecified) | 6.6 | -1 | 13 | 2 | 3 | -1 | 5303
CC/C(C)=C1\SC(N2CCOCC2)=NC1=O | 4.8 | -18 | nt | nt | 0 | 2 | 2793
Cc1ccc(NS(=O)(=O)c2ccc(Cl)s2)cc1S(=O)(=O)N(C)C | 21 | -19 | 16 | 2 | -5 | 5 | 1877
O=C(COc1ccc([N+](=O)[O-])cc1Cl)NCCN1C(=O)CSC1=O | 3.7 | -3 | 22 | 30 | 13 | nt | 2888
COc1ccccc1Nc1nc(N)nc(CN(C)C2CCCCC2)n1 | 2.5 | -17 | 7 | 12 | -21 | 0 | 3946
CCn1cc(C(=O)NCCC(C)C)c(=O)c2cc(F)c(N3CCN(C(=O)c4ccco4)CC3)cc21 | 29 | -15 | -8 | 12 | 37 | 3 | 5884
CCCC(C#Cc1ccsc1)=C1c2ccccc2C(=O)N1c1ccccc1 | -3.6 | nt | 9 | 10 | 17 | nt | nt
CCNC(=O)COc1ccc(Br)cc1Cl | 7.1 | -44 | 6 | 3 | 14 | 3 | 7428
O=C(COc1ccccc1Br)NCCC1=CCCCC1 | 7.6 | -6 | 15 | 7 | -7 | nt | 8164
COc1ccc(NC(=S)Nc2cccc3cnccc23)cc1 | 1.0 | -10 | 10 | 6 | 3 | 0 | 2376
CC1CN(C(C)CO)C(=O)c2cc(NC(=O)NC3CCCCC3)ccc2OC1CN(C)C(=O)Nc1ccccc1 (stereo unspecified) | 1.4 | nt | 8 | 10 | -1 | nt | nt
CC(=O)Nc1ccc(S(=O)(=O)Nc2nc3ccccc3nc2Nc2ccc(O)cc2)cc1 | 5.3 | -9 | 8 | 8 | 11 | 2 | 4425
Cc1ccc(NC(=O)CC2CCCC2)c(Br)c1 | 6.9 | -30 | 8 | 0 | 2 | -5 | 3690
Cc1ccc(-n2c(=S)sc3c(=O)n(-c4ccccc4C)c(SCC(=O)O)nc32)cc1C | 8.8 | -13 | 5 | 6 | 26 | 5 | 3446
COc1ccc(CN2C(=O)CSC2c2ccncc2)cc1 (stereo unspecified) | 3.8 | -3 | 9 | 2 | 3 | -7 | 3561

Continued:
SMILES | RN4220 kill | PrP UTR inh | Mtb hypoxia rep | Mtb hypoxia rep growth | ugtP null kill | BJeLR lethal | Autofluor counter
CC(=O)c1ccc(NC(=S)Nc2cccc(S(=O)(=O)Nc3c(C)n(C)n(-c4ccccc4)c3=O)c2)cc1 | -0.9 | -28 | 5 | 17 | 1 | -3 | 4992
CCOc1ccc(S(=O)(=O)NCc2ccccn2)cc1 | 11 | -61 | 4 | 9 | -4 | 2 | 13165
COc1ccc(NC(=O)c2cc(-c3ccccc3)nc3c2cnn3C(C)C)cc1 | -9.6 | -19 | -2 | 3 | -5 | nt | 3749
O=c1c2ccccc2nc2n1C(CSc1ccc(F)cc1)CN2 (stereo unspecified) | -0.3 | -15 | nt | nt | 0 | 4 | 3527
C=CCOC(=O)C1=C(C)NC(=S)NC1c1cccs1 (stereo unspecified) | 2.3 | 10 | 5 | -4 | 3 | -12 | 2128
Cc1cccc2nc(-c3ccccc3)nc(NC(CO)c3ccccc3)c12 (stereo unspecified) | -4.8 | nt | -8 | 8 | -26 | nt | nt
N#Cc1c(N)n(-c2ccccc2N)c2nc3ccccc3nc12 | 8.7 | -17 | 9 | 10 | 5 | -1 | 4597
CN(C(=O)COC(=O)C1CCN(S(=O)(=O)c2c(Cl)cccc2Cl)CC1)c1ccccc1 | -0.5 | -19 | 13 | -2 | 2 | 6 | 6118
Cc1ccccc1C(=O)N1CCC(C(=O)N2CCN(c3ncccn3)CC2)CC1 | -9.1 | -4 | -6 | 8 | -5 | nt | 3581
COc1ccc(-c2ccc(S(=O)(=O)N3CCOCC3)cc2)cc1 | 3.5 | -16 | 9 | 13 | 5 | 1 | 9667
Nc1ccccc1C#Cc1cnccn1 | 0.7 | -33 | 13 | 9 | -14 | 16 | 2966
CCN(CC(=O)Nc1c(F)cccc1F)C(=O)C1=COCCO1 | 5.8 | -18 | 9 | 0 | 5 | 1 | 5281
CC(C)N(C(=O)Cn1cnc2cc([N+](=O)[O-])ccc2c1=O)C(C)C | 12 | nt | 10 | 9 | -4 | -5 | nt
Cc1ccc(N(C(=O)c2ccn[nH]2)C(C(=O)NC2CCCC2)c2cccs2)cc1 (stereo unspecified) | 3.3 | nt | -1 | -3 | 2 | 5 | nt
COc1ccc(Cl)cc1NC(=O)NCC1CCN(Cc2cc(C)ccc2C)CC1 | -3.2 | -2 | -5 | -8 | -5 | -7 | 3678
O=C(OCc1nnc(-c2ccc(Cl)cc2)o1)c1ccc(O)cc1 | 9.6 | -42 | 0 | 0 | -13 | 2 | 4554
COc1ccc(/C=C/C(=O)OCC(=O)N2CC(=O)Nc3ccccc32)cc1 | 0.8 | -12 | -5 | -5 | 4 | 0 | 2504
CC1(C)CC(=O)C2(CC3=C(CC(C)(C)CC3=O)O2)C(=O)C1 | 6.5 | -22 | 12 | 3 | 1 | -6 | 3424
O=C(O)COc1ccccc1C=NNC(=O)c1cccc(S(=O)(=O)Nc2cccc(Cl)c2)c1 | -0.2 | nt | -1 | -2 | -13 | nt | nt
COc1cccc(Oc2cc(Cl)nc(N)n2)c1 | 5.6 | -6 | -3 | -4 | 4 | 1 | 3929
COC(CNC(=O)CC1C(=O)N(Cc2ccccc2)C(C)c2nc3ccccc3n21)OC (stereo unspecified) | 5.0 | -21 | -1 | -6 | 8 | -5 | 2758
Clc1cccc(Nc2nc(-c3cccnc3)cs2)c1 | 3.1 | -35 | 14 | -4 | 20 | 5 | 4973
COc1cc(/C=C/C(=O)Nc2ccc(N3CCCCC3)c(S(=O)(=O)Nc3ccccc3Cl)c2)cc(OC)c1OC | 7.3 | -15 | 4 | 3 | 1 | 6 | 2458
CCn1ccnc1CN(C)Cc1nc(-c2ccc3c(c2)OCO3)no1 | 8.6 | -31 | 1 | 1 | 4 | 2 | 4489
CC(NC(=S)NCCCN1CCOCC1)C12CC3CC(CC(C3)C1)C2 (stereo unspecified) | 0.7 | -10 | -6 | 2 | 6 | nt | 3489
O=C(Nc1cccn(Cc2c(Cl)cccc2Cl)c1=O)c1ccc(Cl)cc1 | -4.7 | -21 | -20 | -10 | -16 | 18 | 9791

In another format: results already given
Order of results: RN4220 kill	PrP UTR inh	Mtb hypoxia rep	Mtb hypoxia rep growth	ugtP null kill	BJeLR lethal	Autofluor counter
CC(NC(=S)NCCCN1CCOCC1)C12CC3CC(CC(C3)C1)C2 (stereo unspecified)
    0.7	-10	-6	2	6	nt	3489
COC(CNC(=O)CC1C(=O)N(Cc2ccccc2)C(C)c2nc3ccccc3n21)OC (stereo unspecified)
    5.0	-21	-1	-6	8	-5	2758
Clc1cccc(Nc2nc(-c3cccnc3)cs2)c1
    3.1	-35	14	-4	20	5	4973
CCn1ccnc1CN(C)Cc1nc(-c2ccc3c(c2)OCO3)no1
    8.6	-31	1	1	4	2	4489

This is a random part of the collection; any-hit rate near 4.1%.
